High-throughput results (PubChem BioAssay)
Cruzain inh noDet: blocks cruzain activity in detergent-free assay. P25779. purified cruzain, Z-FR-AMC fluorescence, no detergent. Potency, µM, without a hit: max response, negative = inhibition, usual class: inhibitors. hit rate 2.3% among 200,000. AID 1476; active = well fitted curve in the direction sought with a large enough effect; inconclusive = small, poorly fitted or top-dose-only effect, or another doubt; inactive = no such curve, though single readings can be large; an effect the other way counts as inactive or inconclusive;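 note: plate controls were enzyme without inhibitor for no effect and buffer without enzyme for full effect; nearly all actives have a fitted effect of over 40% in size; top concentration of the series not given in the record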
Target sequence (P25779 123-467 limits assumed): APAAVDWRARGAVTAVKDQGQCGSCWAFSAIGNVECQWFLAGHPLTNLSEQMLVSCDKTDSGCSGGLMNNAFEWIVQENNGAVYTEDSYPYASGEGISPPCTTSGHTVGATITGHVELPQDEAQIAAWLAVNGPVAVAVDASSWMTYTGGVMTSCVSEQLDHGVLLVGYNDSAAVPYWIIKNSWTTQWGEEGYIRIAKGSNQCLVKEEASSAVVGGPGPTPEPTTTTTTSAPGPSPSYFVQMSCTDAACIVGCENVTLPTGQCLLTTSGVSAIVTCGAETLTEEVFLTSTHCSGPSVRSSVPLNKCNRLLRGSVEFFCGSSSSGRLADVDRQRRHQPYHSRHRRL
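Purified cruzain at 1.5 nM, pre-incubated 15 min with compound at room temperature in 100 mM sodium acetate pH 5.5, 5 mM DTT, 0.00005% Triton X-100. Reaction started with 2 uM Z-FR-AMC; AMC fluorescence increase over 60 s gives rate.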
StopGo reporter: lowers the luciferase signal of an FMDV 2A StopGo reporter | human cells with a luciferase reporter of 2A StopGo recoding; control for the full effect not named in the record | Potency, µM (doses to about 57.9 µM), for the others: at the top dose signal change, negative = less light | hit rate 1.2% among 410,000; active = well fitted falling curve with a large enough effect; inconclusive = small, poorly fitted or top-dose-only effect; inactive = no such curve, though single readings can be large or run the other way; tested in HEK293T cells; note: % is set by controls: 0 for no effect and ±100 for the full control effect; nearly all actives have a fitted effect of over 45% in size; luciferase light after 4 h
NS1 function inh: influenza NS1 inhibition | S. cerevisiae slowed by influenza A NS1, growth recovery by OD600 | Potency, µM (highest dose often 46.1 µM), without a hit: at the top dose activity, positive = more growth | hit rate 0.4% among 270,000 | AID 2326; note: actives are rising curves; nearly all actives have a fitted effect of over 50% in size
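A cell-based growth assay was used: compounds that relieve NS1-induced slow growth of budding yeast raise OD600. Assay medium was yeast nitrogen base with ammonium sulphate and -URA supplement, pH 6.0, with 2% galactose.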
LASV entry inh: blocks Lassa virus binding to or entry into cells; hit rate 1.2% among 300,000; Potency, µM (titrated, usually from 37.9 µM), without a hit: top-dose activity change, negative = inhibition, hits mostly inhibitors; Lassa virus pseudotype entry inhibition, cell reporter; control for the full effect not named in the record; active means well fitted inhibition curve with a large enough effect; inconclusive means small, poorly fitted or top-dose-only effect, or effect the other way; inactive means flat fitted curve, though single readings scatter; tested in HEK293 cells; note: % is set by controls: 0 for no effect and ±100 for the full control effect; nearly all actives have a fitted effect of over 50% in size; luciferase read-out
RE007 growth inh: less growth of the S. pombe RE007 Vpr strain; S. pombe RE007 Vpr strain, BacTiter-Glo ATP luminescence, 24 h; control for the full effect not named in the record; Potency, µM (highest dose often 92.2 µM), for the others: at the highest dose activity change, negative = less growth; hit rate 0.21% among 360,000; active = well fitted falling curve with a large enough effect; inconclusive = small, poorly fitted or top-dose-only effect; inactive = no such curve, though single readings can be large or run the other way;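 note: % is set by controls: 0 for no effect and ±100 for the full control effect; nearly all actives have a fitted effect of over 50% in size; the assay follows cell death caused by Vpr and the record does not say whether a fall means rescue or toxicity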
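Fission yeast RE007 carrying one integrated HIV-1 vpr copy, seeded at OD 0.01 in PMG+AL medium with 23 nL pinned compound. Grown 24 h at 30 degrees; viability read by BacTiter-Glo luminescence after 5 min.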
Marburg entry inh: inhibitors of Marburg virus binding or cell entry; Marburg virus pseudotyped entry inhibition, cell reporter; control for the full effect not named in the record; about a third of the inactives were read at about 46 µM; Potency, µM (titrated, usually from 37.8 µM), for inactives: at the highest dose activity change, negative = inhibition, hits mostly inhibitors; hit rate 1.8% among 300,000; active = well fitted inhibition curve with a large enough effect; inconclusive = small, poorly fitted or top-dose-only effect, or effect the other way; inactive = flat fitted curve, though single readings scatter; tested in HEK293 cells; about a fifth of its hits are not listed in these tables; note: % is set by controls: 0 for no effect and ±100 for the full control effect; luciferase read-out
Cruzain Triton: inhibitors of Trypanosoma cruzi cruzain with detergent; P25779; AID 1478; hit rate 0.43% among 200,000; purified cruzain, Z-FR-AMC fluorescence, 0.01% Triton; Potency, µM, for inactives: max response, negative = inhibition, actives largely listed as inhibitors; active = well fitted curve in the direction sought with a large enough effect; inconclusive = small, poorly fitted or top-dose-only effect, or another doubt; inactive = no such curve, though single readings can be large; an effect the other way counts as inactive or inconclusive;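 note: plate controls were neutral wells for no effect and buffer without enzyme for full effect; nearly all actives have a fitted effect of over 40% in size; top concentration of the series not given in the record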
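In this qHTS format, compounds are incubated with 1.5 nM cruzain for 15 min at room temperature before 2 uM Z-FR-AMC is added. Release of AMC is followed at 360/450 nm, and progress is taken as the 60 s fluorescence difference.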
SARS PLpro yeast: inhibitors of SARS-CoV papain-like protease in yeast. hit rate 0.19% among 330,000. S. cerevisiae expressing SARS-CoV PLpro, growth rescue; control for the full effect not named in the record. Potency, µM (top dose mostly 32.9 µM), inactives show at the highest dose activity, positive = growth rescue. AID 485353; note: 0% is about no effect; nearly all actives have a fitted effect of over 55% in size; growth read by luminescence after 48 h
The depositor's hits bear a star; u = inconclusive; x = not tested or not shown; & = joins results of further samples; [ ] = another dose, or the depositor's remark. Unless noted, calls come from the whole dose curve; as a rule, active means well fitted rising curve with a large enough effect; inconclusive means small, poorly fitted or top-dose-only effect; inactive means no such curve, though single readings can be large or run the other way. Potency is the fitted concentration of half-maximal effect. The order is random, and some 4.8% of all compounds hit somewhere here.

SMILES	Cruzain inh noDet	StopGo reporter	NS1 function inh	LASV entry inh	RE007 growth inh	Marburg entry inh	Cruzain Triton	SARS PLpro yeast
Cc1ccc(SC2CCN(C(=O)C3CCC(=O)N(C4CC4)C3)CC2)cc1 (stereo not given)	x	-14%	-7%	x	3%	x	x	6%
Cc1ccc(NC(=O)Cc2ccsc2)cc1S(=O)(=O)N1CCOCC1	x	48%[activator]	x	u	-15%	8%	x	-5%
CCOc1ccccc1C1C2=C(COC2=O)Nc2cc3c(cc21)OCO3 (stereo not given)	x	0%	2%	x	14%	u	x	-1%
COc1ccc(-c2nnc(SCC(=O)c3ccc(C)o3)o2)cc1	-1%	-9%	2%	u	-16%	u	-6.0%	1%
COc1ccc(N2CC(C(=O)Nc3nnc(SCC(=O)c4ccccc4)s3)CC2=O)cc1 (stereo not given)	u	0%	10%	2%	-2%	3%	-12%	6%
O=C(Nc1cccc(F)c1)C1CCN(C(=O)Cc2ccccc2)CC1	-8%	-10%	-4%	-2%	1%	3%	-5.1%	-3%
Cc1cc(C)nc(N/N=C/c2cccc(Cl)c2)n1	x	31%[activator]	-8%	2%	-3%	u	x	15%
O=S(=O)(N1CCCCC1)N1CCNCC1	-6%	x	3%	15%	2%	5%	0.9%	-4%
CCC(C)(C)n1nnnc1C(c1ccc(C)cc1)N1CCN(Cc2ccc3c(c2)OCO3)CC1 (stereo not given)	-2%	0%	3%	u	-14%	u	-1.2%	9%
CCCN(CCC)C(=O)Cc1c(-c2ccc(Cl)cc2)nc2c(Cl)cc(Cl)cn12	4%	0%	0%	x	4%[18.4 µM]	-16%&-16%&-16%&-16%	-3.7%	x
COc1cc2c(C(=O)N3CCN(c4cccc(C(F)(F)F)c4)CC3)cn(CC(C)C)c(=O)c2cc1OC	u	-18%	x	u	x	x	-10%	x
O=c1oc(-c2ccccc2Br)nc2ccccc12	x	-6%	-44%	-4%[46.1 µM]	-7%	20%[46.1 µM]	x	-1%
Cc1cc([N+](=O)[O-])ccc1NC1CCCC1	-17%	-2%	3%	-15%	-10%	u	-9.1%	-10%
CCc1noc(C)c1C(=O)OCC(=O)N(CCOC)c1c(N)n(Cc2ccccc2)c(=O)[nH]c1=O	x	10%	x	-4%	13%	13%[46.1 µM]	x	-3%
CCCS(=O)(=O)c1nc(S(=O)(=O)c2ccc(C)cc2)c(NCC(C)C)s1	-9%	24%	x	-21%[46.1 µM]	x	-9%[46.1 µM]	-8.8%	x
Cc1c(CNCc2ccc(OC(C)C)cc2)c(C(=O)O)c(C)n1Cc1ccc(Cl)cc1	-2%	-20%	x	3%[46.1 µM]	x	u	-0.3%	x
O=[N+]([O-])c1ccc(Oc2cccnc2)c([N+](=O)[O-])c1	x	32µM*	x	u	-19%	7.9µM*	x	x
CCCOP(=O)(c1ccc(N(C)C)cc1)C(O)c1cc(OC)c(OC)c(OC)c1 (stereo not given)	-5%	8%	5%	6%	26%	-3%[46.1 µM]	0.4%	-1%
Cc1cc(NC(=O)COc2coc(CN3CCN(c4ccc(F)cc4)CC3)cc2=O)no1	x	-27%	x	9%	-20%	-18%	x	3%
CCCNC(=O)c1ccc(Cn2cc(C(F)(F)F)ccc2=O)cc1	x	-15%	x	-10%	-4%	0%[46.1 µM]	x	1%
COc1ccc(/C=C/C(=O)Nc2cc(S(=O)(=O)N3CCOCC3)ccc2C)cc1OC	x	-25%	x	-4%[46.1 µM]	-5%	3%[46.1 µM]	x	-1%
COc1ccc(/C=N/OC(=O)Nc2ccc(Cl)cc2)c(OC)c1	x	14%	-56%	0%[46.1 µM]	-3%	17%[46.1 µM]	x	-6%
O=C(CCC(=O)Nc1ccccc1)N/N=C/c1ccc2c(c1)OCO2	x	27%	-8%	2%[46.1 µM]	0%	19%[46.1 µM]	x	u
COc1ccccc1/C=C1\SC(=S)N(NS(=O)(=O)c2ccccc2)C1=O	x	-12%	1%	3%	1%	-1%[46.1 µM]	x	2%
CCOc1ccccc1N(C)C(=O)c1cc2c(=O)n(CC)c3ccccc3c2s1	x	0%	11%	x	21%	x	x	-8%
Cc1ccc(NC(=O)CCCSc2nc3ccccc3[nH]2)cc1	10%	-25%	-23%	-14%	10%	-13%	-6.1%	-2%
COc1ccccc1N1CCN(C(=O)c2ccc(-c3ccccc3)cc2)CC1	x	37%[activator]	-61%	x	13%	x	x	-6%
O=C(COC(=O)c1ccc(O)cc1)NCCCc1ccccc1	x	17%	x	-29%	-6%	17%[46.1 µM]	x	0%
Cc1cc(C(=O)CCC(=O)N2CCN(S(=O)(=O)c3cccs3)CC2)c(C)s1	-6%	-29%	-6%	u	-8%	-2%	-2.8%	-3%
CCC(CC)C(=O)Nc1c2c(nn1-c1ccc(OC)cc1)CS(=O)C2 (stereo not given)	-6%	-18%	-6%	0%	1%	4%[46.1 µM]	3.5%	-4%
CCCCS(=O)(=O)/C=C/[C@H]1[C@H](S(=O)(=O)CCCC)[C@H]2C=C[C@@H]1C2	-3%	45%[activator]	6%	-1%	17%	-1%	-1.2%	19%
Cc1ccc(OCC(=O)Nc2nonc2-c2ccc(Br)cc2)cc1	-5%	-11%	x	-14%[46.1 µM]	x	2%[46.1 µM]	-3.3%	x
CC1C=CCC2C(=O)N(c3cccc(C(=O)N4CCCCCC4)c3)C(=O)C12 (stereo not given)	x	-15%	11%	-5%	3%	3%	x	x
COC(=O)CSc1cc(C)nc(SC)n1	1%	6%	-14%	1%	-5%	-1%	1.1%	0%
Cc1oc(-c2cccc(C(F)(F)F)c2)nc1CN1CCOCC1	x	1%	-1%	16%[46.1 µM]	13%	0%[46.1 µM]	x	-1%
C=CCN1C(=O)c2ccccc2Sc2ccc(C(=O)N3CCC4(CC3)OCCO4)cc21	u	-30%	-3%	-5%	7%	-16%	4.2%	-2%
COc1ccc(C)cc1NC(=O)c1cc(C2CC2)nc2c1c(C)nn2C1CCS(=O)(=O)C1 (stereo not given)	x	-10%	x	u	0%	-25%	x	x
CN(CC(=O)Nc1ncn[nH]1)S(=O)(=O)c1ccc(Br)cc1	x	-2%	2%	2%	6%	7%	x	5%
Cc1ccc(SC(C)C(=O)N2CCCC2)cc1 (stereo not given)	1%	23%	0%	u	8%	5%	5.1%	2%
CCn1c(=O)cc(SCC(=O)NCCCN2CCN(c3ccc(F)cc3)CC2)c2ccccc21	-16%	u	-7%	-3%	-6%	1%&2%	-3.3%	0%
Cc1c(C(=O)N(Cc2cccc(Br)c2)C2CCS(=O)(=O)C2)oc2ccc(F)cc12 (stereo not given)	x	u	29%	u	15%	u	x	-3%
Cc1cccc(NS(=O)(=O)c2ccc3[nH]c(=O)ccc3c2)c1C	-14%	u	x	1%[46.1 µM]	x	x	-5.2%	x
COc1ccc(NC(=O)NC(=O)c2cc(OCC(F)(F)F)ccc2OCC(F)(F)F)cc1	x	11%	-3%	-6%	18%	u	x	0%
Cc1ccc(N(CC(=O)NCc2ccc3c(c2)OCO3)C(=O)CCC(=O)Nc2ccccn2)cc1	x	0%	-5%	u	-4%	-1%[46.1 µM]	x	0%
Cc1cc2c(cc(C(=O)O)n2C)s1	-8%	-14%	-88%	1%	2%	u	-0.7%	-4%
COc1cccc2c1cc1c(=O)n(CC(=O)N3CCN(c4ccccc4)CC3)nc(C)n12	-3%	-3%	x	x	x	-2%[46.1 µM]	0.1%	x
O=C1CCC/C(=N\NC(=O)COc2ccc(Cl)cc2)C1	x	-8%	x	1%[46.1 µM]	1%	u	x	2%
Cc1ccc2c(c1)cc(CN(Cc1cccnc1)C(=O)NCc1ccccc1)c1nnnn12	4%	4%	-22%	-5%	4%	11%	4.4%	2%
Cc1ccc(OC(=O)c2ccc(Br)o2)cc1	5%	-9%	-12%	0%	-2%	-2%	-4.3%	4%
Cc1ccc(OCCC(=O)OCC(=O)N2CCN(S(=O)(=O)c3ccc(Cl)cc3)CC2)cc1	x	-18%	x	0%	2%	-11%[46.1 µM]	x	-7%
CCOc1cc(CNc2ccc3c(c2)OCCO3)cc(Br)c1OCC(N)=O	-7%	x	8%	-19%	-4%	-22%	-5.9%	5%
COc1cccc2cc(C(=O)NCc3ccccc3Br)c(=O)oc12	x	42%[activator]	0%	17%[46.1 µM]	-1%	6%[46.1 µM]	x	-2%
CC(OC(=O)Cc1n[nH]c(=O)c2ccccc12)C(=O)Nc1ccc(F)cc1 (stereo not given)	x	-13%	x	6%	-16%	10%[46.1 µM]	x	-6%
CN(C)NC(=S)NC1CC2CCC1C2 (stereo not given)	x	3%	-2%	x	10%	x	x	13%
CC(=O)c1cn(C)c(=O)n(C)c1=O	-1%	-2%	6%	11%	-2%	9%	2.9%	8%
CCOc1cc(NC(=S)NCCCN2CCOCC2)c(OCC)cc1NC(=O)CC(C)C	4%	3%	1%	18%	-7%	-26%	8.1%	0%
COc1ccc(N/C=C\C(=O)c2ccc(Br)cc2)cc1OC	-26%	43%[activator]	-12%	-3%	4%	u	-2.8%	u
OC(COc1ccc(OCC(O)CN2CCN(Cc3ccccc3)CC2)cc1)CN1CCN(Cc2ccccc2)CC1 (stereo not given)	x	u	x	u	-13%	u	x	x
Cc1onc(-c2ccccc2)c1C(=O)OCC(=O)Nc1cc(S(=O)(=O)N2CCOCC2)ccc1Cl	x	u	-16%	u	1%	u	x	-4%
CCC(=O)NC(=Nc1nc2ccccc2s1)NC(=O)CC	-3%	29%	-32%	4%	-22%	u	-3.4%	-6%
More structures
SMILES	Cruzain inh noDet	StopGo reporter	NS1 function inh	LASV entry inh	RE007 growth inh	Marburg entry inh	Cruzain Triton	SARS PLpro yeast
CN(C)C(=S)NC(C)(C)C	x	-10%	2%	3%	4%	-24%[46.1 µM]	x	0%
Cc1ccc2nc(NC(=O)C3CCN(S(=O)(=O)c4cc([N+](=O)[O-])ccc4Cl)CC3)sc2c1	32µM*	u	u	u	4%	8.2µM*	-3.0%	5%
CCOC(=O)C1(Cc2cccc(F)c2)CCN(C(=O)COC)CC1	x	20%	-11%	x	-9%	x	x	-1%
Cn1c(C(=O)OCC(=O)NCc2cccs2)cc2sccc21	-27%	x	0%	u	6%	-5%	-5.0%	-5%
COc1cccc(C2NC(c3cccc(OC)c3O)C(C)C(=O)C2C)c1O (stereo not given)	-6%	u	-14%	-10%	12%	u	5.2%	11%
